# KCNQ2 enhance = enhances the rat KCNQ2 potassium channel. O88943. CHO-K1 KCNQ2, FluxOR thallium flux fluorescence; active compounds read high. B-score at 10 µM. actives 0.54% (n = 310,000). AID 2239;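 active means fluorescence ratio B-score at least 3 SD of library B-scores, with initial fluorescence B-score within 3 SD, cut at about 5.3 in these data; same plate scores as AID 2156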;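 further: B-score of peak minus minimum over baseline fluorescence ratio after K+ and Tl+ stimulus; positive B-score means potentiation of KCNQ2 with more thallium influx and brighter signal; only the inactives scoring about 0 or higher are listed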
# Target sequence (O88943 whole entry, looked up): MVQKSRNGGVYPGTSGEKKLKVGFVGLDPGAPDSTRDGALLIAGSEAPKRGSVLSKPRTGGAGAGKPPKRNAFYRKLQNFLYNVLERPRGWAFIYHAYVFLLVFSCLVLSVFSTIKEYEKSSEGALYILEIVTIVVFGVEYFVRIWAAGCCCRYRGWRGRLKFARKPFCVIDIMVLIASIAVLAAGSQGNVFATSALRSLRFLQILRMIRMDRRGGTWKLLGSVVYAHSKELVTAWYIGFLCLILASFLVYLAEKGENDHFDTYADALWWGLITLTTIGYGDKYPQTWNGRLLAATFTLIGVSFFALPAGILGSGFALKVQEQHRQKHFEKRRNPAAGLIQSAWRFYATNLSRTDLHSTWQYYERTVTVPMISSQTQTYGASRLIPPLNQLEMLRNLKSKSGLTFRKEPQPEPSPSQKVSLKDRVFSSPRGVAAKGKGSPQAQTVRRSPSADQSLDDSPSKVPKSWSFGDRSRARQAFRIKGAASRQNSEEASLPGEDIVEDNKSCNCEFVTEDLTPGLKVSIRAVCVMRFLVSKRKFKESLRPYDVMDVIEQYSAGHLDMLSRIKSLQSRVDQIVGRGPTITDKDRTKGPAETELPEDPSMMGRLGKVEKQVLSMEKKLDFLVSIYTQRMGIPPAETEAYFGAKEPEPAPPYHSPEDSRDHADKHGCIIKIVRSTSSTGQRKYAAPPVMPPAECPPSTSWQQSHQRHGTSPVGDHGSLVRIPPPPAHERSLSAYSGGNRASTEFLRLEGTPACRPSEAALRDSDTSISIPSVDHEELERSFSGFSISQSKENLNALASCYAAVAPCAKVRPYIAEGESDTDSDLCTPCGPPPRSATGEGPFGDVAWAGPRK
# KCNQ2 enhance baseline = also measured in KCNQ2 enhance; calls as there; B-score; compound at 10 µM; measured here: initial fluorescence intensity artifact check;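 brightness before thallium and not channel activity; 0 = typical well and far values either way flag optical interference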
# Starred values were filed as active, the others as inactive.
# Sample of the layout, 2 compounds:
molecule	KCNQ2 enhance	KCNQ2 enhance baseline
CC1(C)CC(=O)C2=C(C1)OC(N)=C(C#N)C2c1ccc2c(c1)OCO2 (configuration not stated)	1.2	-0.31
CCOC(=O)c1c(N)sc(C(=O)N(CC)CC)c1C	0.01	1

# Main list, from the start:
molecule	KCNQ2 enhance	KCNQ2 enhance baseline
CC1(C)CC(=O)C2=C(C1)OC(N)=C(C#N)C2c1ccc2c(c1)OCO2 (configuration not stated)	1.2	-0.31
CCOC(=O)c1c(N)sc(C(=O)N(CC)CC)c1C	0.01	1
O=C(N/C(=C\c1ccc2c(c1)OCO2)C(=O)N1CCOCC1)c1cccs1	0.6	1.6
Cc1ccc(OCCn2cc(/C=C(\C#N)C(=O)NCC3CCCO3)c3ccccc32)cc1C (configuration not stated)	0.27	-0.17
Cc1c(NC(=S)NC(=O)c2cccc([N+](=O)[O-])c2)c(=O)n(-c2ccccc2)n1C	2.5	-0.22
CC(=O)c1c(C(C)=O)c(C)n(-c2cccc([N+](=O)[O-])c2)c1C	0.31	0.02
Cc1ccccc1CCN(C(=O)c1csnn1)C(C(=O)NC1CCCC1)c1ccncc1 (configuration not stated)	0.5	-1.2
COC(=O)c1c(CSc2ccc(Cl)cc2)noc1C(=O)NCc1ccco1	1.1	-0.31
O=C(CSc1ncnc2c1oc1ccccc12)Nc1ccccc1C(F)(F)F	0.07	1.1
CCN(CC)CCNC(=O)C(=O)NCC1OCCN1S(=O)(=O)c1ccc([N+](=O)[O-])cc1 (configuration not stated)	0.12	2.1
COc1ccc(CNC(=O)C2CCC(CNc3c(N4CCOCC4)c(=O)c3=O)CC2)cc1 (configuration not stated)	1.4	-0.75
Cn1cc(CN2CC3C[C@@H]4CC2C[C@H](C3)C4)c(-c2ccc3c(c2)OCCO3)n1	1.6	1.2
Cc1ccc(-n2nc(C)c(NC(=O)COC(=O)c3ccccc3NCCO)c2C)cc1	0.85	-0.75
CCOC(=O)CN(C(=O)CSc1nnc(CNc2ccc(F)cc2)n1CC)c1ccc(F)cc1	0.22	0.29
O=C(COc1ccccc1F)NNC(=O)c1cccc(-n2cccc2)c1	1.4	0.79
COc1ccc(NC(C)=O)cc1S(=O)(=O)Nc1ccccc1C(=O)NCCc1ccccc1	0.12	-0.02
Cc1ccn(C(=O)c2ccc(NC(=O)C3CCCCC3)cc2)n1	0.87	0.05
Cc1ccc(N2C(=O)C3C4C=CC(CNC(=S)Nc5ccc(F)cc5)(O4)C3C2=O)cc1 (configuration not stated)	1.2	-1.6
CN(C)S(=O)(=O)c1cc(NC(=O)c2cc(=O)c3ccccc3o2)ccc1Cl	0.16	-0.68
COc1c(Cl)cnn(-c2ccccc2)c1=O	1.2	1.8
CCN(C(=O)Cc1cccs1)c1nnc(-c2cc(OC)c(OC)c(OC)c2)s1	0.19	-0.46
CCCCNC(=O)NNC(=O)c1ccoc1C	1.3	-1
COc1ccc(C)cc1-n1nnnc1SCc1nc2ccccc2c(=O)[nH]1	0.97	-0.52
O=c1[nH]cnc2c1sc1nc3c(c(-c4ccc(Cl)cc4)c12)CCC3	1.7	1.3
O=C(CSc1nc2ccccc2[nH]1)N1CCCCC1	0.33	-1.2

# Next results
molecule	KCNQ2 enhance	KCNQ2 enhance baseline
Cc1ccc(Oc2nn[nH]n2)cc1	0.64	1.5
Cc1c(CCC(=O)O)c(=O)oc2cc3occ(-c4ccc(F)cc4)c3cc12	3.5	-0.99
O=C(CSCc1ccc(Cl)c(Cl)c1)Nc1c[nH]c(=O)[nH]c1=O	0.6	-0.16
O=S(=O)(Cc1ccccc1)Nc1ccc(S(=O)(=O)NCC2CCCO2)cc1 (configuration not stated)	0.02	-0.02
CCOc1ccc(NC(=O)NCc2ccco2)cc1	0.02	0.33
COc1ccc(NC(=O)CSc2nc3c(c(=O)n2-c2ccccc2OC)SCC3)cc1	0.4	1.3
COc1cccc(C(=O)Nc2ccc(N3CCN(S(C)(=O)=O)CC3)cc2)c1	2.4	-0.22
Cc1cccc(C(=O)NC2CC3CCCC(C2)N3Cc2ccccc2)c1 (configuration not stated)	1.7	-0.07
Nc1cc(OC(=O)c2cccs2)nn1S(=O)(=O)c1ccccc1	0.34	-0.11
COc1ccc(/C=C2\Oc3cc(OCC(=O)N4CC(O)C[C@H]4C(=O)O)ccc3C2=O)c(OC)c1OC (some centres not stated)	0.22	0.75
O=C(CSc1nnc(C2CC2)n1CC1CCCO1)Nc1ccc(Cl)cc1 (configuration not stated)	0.49	1
O=C(CN1C(=O)NC2(CCSC2)C1=O)N1CCN(c2ccc(F)cc2)CC1 (configuration not stated)	1.3	-0.61
COc1ccc(C2=NS(=O)(=O)N(C)C(C(=O)NC3CCCCC3)=C2)cc1	0.56	-0.04
COc1ccc(/C=C/C(=O)NC(=S)Nc2ccc(S(N)(=O)=O)cc2)cc1	1.4	-0.07
O=C(N/N=C(\CC(=O)c1cccs1)C(F)(F)F)c1ccncc1	0.05	-2.5
Cc1ccc(NC2OC(C(O)CO)C(O)C2O)cc1[N+](=O)[O-] (configuration not stated)	0.08	-2.2
COc1ccc(Cc2nc3ccc(C(=O)N(C)C(C)c4ccon4)cc3o2)cc1 (configuration not stated)	0.83	-1.1
COc1ccccc1-c1nnc(SCC(=O)N2CC(C)CC(C)C2)o1 (configuration not stated)	0.72	-0.05
CSc1ncccc1C(=O)Nc1nccs1	0.04	-2.4
CS(=O)(=O)Nc1ccc2c(c1)ncn2CCc1ccccc1	0.51	-0.65
O=C(COC(=O)c1cc(Cl)ccc1O)NCC1CCCO1 (configuration not stated)	0.01	0.96
OCCNCc1cc(Br)ccc1OCc1ccccc1Cl	2.8	-0.43
O=C(Cc1ccc(S(=O)(=O)N2CCOCC2)s1)NCCOc1ccccc1F	0.11	-1.2
CCOC(=O)c1cc(NC(=O)c2cnccn2)cc(C(=O)OCC)c1	1.3	1.2
N/C(=N\OC(=O)CCC1CCCC1)c1ccc(Br)cc1	0.71	0.18

# Some of these compounds in order of molar mass, falling:
molecule	KCNQ2 enhance	KCNQ2 enhance baseline
CCOC(=O)CN(C(=O)CSc1nnc(CNc2ccc(F)cc2)n1CC)c1ccc(F)cc1	0.22	0.29
Cc1ccc(-n2nc(C)c(NC(=O)COC(=O)c3ccccc3NCCO)c2C)cc1	0.85	-0.75
Cc1c(NC(=S)NC(=O)c2cccc([N+](=O)[O-])c2)c(=O)n(-c2ccccc2)n1C	2.5	-0.22
COc1ccc(Cc2nc3ccc(C(=O)N(C)C(C)c4ccon4)cc3o2)cc1 (configuration not stated)	0.83	-1.1
O=C(COc1ccccc1F)NNC(=O)c1cccc(-n2cccc2)c1	1.4	0.79

# (cont.)
molecule	KCNQ2 enhance	KCNQ2 enhance baseline
COc1cccc(NC(=O)COC(=O)COc2ccccc2[N+](=O)[O-])c1	0.55	1
COc1ccc(-n2nc(C)c3onc(C)c3c2=O)cc1	1.2	-0.13
CCOc1ccc(N(CC(=O)Nc2cccc(OC)c2)S(=O)(=O)c2c(C)noc2C)cc1	0.82	-0.51
COC(=O)c1ccc(OCc2cc(=O)n3ccsc3n2)cc1	0.3	-0.4
COc1ccc(N(C(=O)CNC(=O)c2ccco2)C(C(=O)NCC2CCCO2)c2ccccc2)cc1OC (configuration not stated)	0.8	0.26
CCN(C(=O)c1cc(Cl)ccc1OC)c1ccccc1	0.77	1.4
COC(=O)[C@H](CCSC)NC(=O)c1cc2c(cn1)[nH]c1ccccc12	1.5	-0.66
CC(=O)Nc1cccc(OCC(=O)NC(C)c2ccc3ccccc3c2)c1 (configuration not stated)	2.5	-0.86
COc1ccc(N2CCN(CCCNC(=O)CN3CCN(Cc4ccccc4C)C3=O)CC2)cc1	1.5	-1.1
CCOC(=O)C1CCCN(CCC(=O)Nc2cc(C)cc(C)c2)C1 (configuration not stated)	0.48	-0.03
CN(C)c1ccc(CNC(=O)CCS(=O)(=O)c2ccc3c(c2)oc(=O)n3C)cc1	1.2	0.98
Cn1nc(-c2ccccc2)cc1NC(=O)Nc1ccc(C(C)(C)C)cc1	0.88	-0.04
Nc1ccc(S(=O)(=O)N2CCc3ccccc32)cc1	0.69	0.09
Cc1ccc(NC(=O)CCCCCCCCCCC2COCCO2)c(C)c1 (configuration not stated)	4.4	1.3
COc1ccccc1NC(=O)C(C)OC(=O)COc1cccc2c1OC(C)(C)C2 (configuration not stated)	0.9	0.17
CC1CCCC(C)N1CCCNC(=O)CN1C(=O)c2cccnc2Oc2ccc(Cl)cc21 (configuration not stated)	2.1	1.5
Cc1ccc(NC(=O)CSC2=C(C#N)C(c3ccc4c(c3)OCO4)CC(=O)N2)cc1C (configuration not stated)	0.12	1.9
Cc1cccc(NC(=O)CSCC(=O)Nc2sccc2C#N)c1	0.22	-0.01
CN1CCN(CCOc2ccc(Cc3ccccc3)cc2)CC1	1.3	-1.6
Cc1cc(C(=O)Nc2ccc(C(=O)O)cc2)c(-c2ccccc2)o1	0.31	-0.09
O=[N+]([O-])c1cccc(C(=Nc2cccc(Cl)c2)NO)c1	0.89	1.8
O=C(Nc1ccc(Br)c(Cl)c1)C1CC1	1.8	0.03
O=C(NCCc1ccccc1)c1cccc(N2C(=O)C3CC=CCC3C2=O)c1 (configuration not stated)	1	0.07
CCN(c1ccccc1C)S(=O)(=O)c1nnc(NC(=O)c2ccco2)s1	0.65	0
Cc1ccc(CNC(=O)CSc2nccn(-c3ccc(C)c(F)c3)c2=O)cc1	0.01	3.2

# (cont.)
molecule	KCNQ2 enhance	KCNQ2 enhance baseline
CN(C)CCOc1cc(Cl)cc(Cl)c1	0.98	-0.56
Cc1ccccc1Cn1nc(C)c(NC(=O)c2noc3c2CCCC3)c1C	0.34	-0.01
COc1ccc(C(CNC(=O)c2ccc(NS(=O)(=O)c3cccc([N+](=O)[O-])c3)cc2)N2CCOCC2)cc1 (configuration not stated)	1.2	-1.4
Cc1ccc(Cn2c(SCC(=O)NCC3CCCO3)nc3c(sc4ccccc43)c2=O)cc1 (configuration not stated)	0.37	-0.88
CC(C)c1ccc(-c2cc(C(=O)N3N=C(C(F)F)CC3(O)C(F)F)c3ccccc3n2)cc1 (configuration not stated)	1.2	0.11
COc1ccc(NC(=O)CC2C(=O)N(c3ccc(F)cc3)C(=S)N2NC(=O)c2ccc(Cl)cc2)cc1 (configuration not stated)	1	-0.39
Cc1ccc(-c2nnc(SCC(=O)NNC(=O)COc3cccc4ccccc34)n2C)cc1	0.29	2.9
O=C(O)COc1ccccc1-c1ccccc1	0.34	-2.4
Cn1cc(S(=O)(=O)CC(=O)Nc2ccc3c(c2)OCO3)c2ccccc21	1.9	-0.49
Cc1cc(C(=O)NC2CC(C)(C)Cc3c2cnn3-c2ccc(F)cc2)no1 (configuration not stated)	0.44	-1.8
CCOC(=O)c1c(S(=O)(=O)N(C)Cc2ccco2)c(C)n(C)c1C	1.1	0.08
Cc1ccc(O)c(N/C=C/C(=O)c2ccc(F)cc2)c1	0.51	-0.02
COc1ccc(NC(=O)c2cc(S(=O)(=O)N3CCOCC3)cn2C)c(OC)c1	1.4	2.4
O=C(O)CSC1=NC(=Nc2cccc(Cl)c2)C2(CCCCC2)N1c1ccccc1	0.11	0.67
O=C(CC1C(=O)NCCN1C(=S)Nc1ccccc1)Nc1ccc(F)cc1 (configuration not stated)	0.79	-0.69
CCCn1c(SCC(=O)N2CCCC2)nc2c1c(=O)n(C)c(=O)n2C	0.3	-0.44
COc1ccccc1/C=N/NC(=O)c1cccc(NC(=O)c2ccccc2Cl)c1	0.05	-0.21
Cc1ccc(S(=O)(=O)N2CCN(C(=O)COC(=O)COc3cccc4c3OC(C)(C)C4)CC2)cc1	0.02	0.68
CC(=O)Nc1ccc(S(=O)(=O)NC(CSc2ccc(C(=O)O)cc2[N+](=O)[O-])C(=O)O)cc1 (configuration not stated)	0.39	0.89
c1nc2sc3c(c2c2nnnn12)CCCC3	1	1.5
O=C(c1ccc(S(=O)(=O)N2CCOCC2)cc1)N1CCN(c2ccccc2)CC1	0.88	-1.1
O=C(COc1ccccc1[N+](=O)[O-])OCC(=O)N1CCC(Cc2ccccc2)CC1	0.73	-0.7
CCCCOC(=O)C1=C(C)Nc2nnnn2C1c1ccccc1Cl (configuration not stated)	0.79	-1.6
c1cncc(-c2noc(-c3ccco3)n2)c1	0.35	-0.59
COc1ccc(OC)c(CN(CCCN2CCOCC2)C(=O)Nc2ccccc2)c1	0.34	0.2

# Remaining list, next part
molecule	KCNQ2 enhance	KCNQ2 enhance baseline
Fc1ccc(F)c(C2=NNC(=NCC3CCCO3)SC2)c1 (configuration not stated)	0.02	0.39
C#CCOc1ccc(/C=C2/C(=O)NN(c3ccc(F)cc3)C2=O)cc1OC	2.8	-0.85
COc1ccc(S(=O)(=O)N2CCC(C(=O)O)(c3ccccc3)CC2)cc1	0.75	-2.6
CC1(OC(=O)C2CCCC2)C(=O)C=C2C=C(c3ccsc3)N(C3CCCC3)C=C2C1=O (configuration not stated)	0.41	0.39
COc1ccc(NC(=O)C2CCCN(S(=O)(=O)c3ccc(-n4cnnn4)cc3)C2)cc1 (configuration not stated)	0.01	-1.1
O=C(CSc1nc2ccccc2o1)N1CCN(c2ccc(Cl)cc2)CC1	0.94	-0.73
CC(C)(C)C(=O)Nc1ccccc1C(=O)NCc1cccnc1	0.58	1.1

# Compound profiles, as listed above.
# O=C(CSc1nc2ccccc2o1)N1CCN(c2ccc(Cl)cc2)CC1 is listed with KCNQ2 enhance = 0.94; KCNQ2 enhance baseline = -0.73
# COc1ccc(NC(=O)C2CCCN(S(=O)(=O)c3ccc(-n4cnnn4)cc3)C2)cc1 (configuration not stated) is listed with KCNQ2 enhance = 0.01; KCNQ2 enhance baseline = -1.1

# High-throughput results (PubChem)

# Some of the compounds tested. The share of hits here may be higher or lower than overall.
